From PubChem
Arbovirus inh: blocks arbovirus infection | arbovirus infection cell-based antiviral screen | 200,000 tested, 0.37% active | inhibition, % at 10 µM;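 active = inhibition from about 30%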;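 also: bluetongue infection of BSR cells; cell survival read as ATP light after 72 h; 0% = infected wells without compound and 100% = uninfected wells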
Mtb H37Rv: M. tuberculosis H37Rv growth inhibitors, H37Rv strain (AID 1626). M. tuberculosis H37Rv growth inhibition; higher % means a stronger effect. inhibition, % at 10 µM, or IC50 in µM where a hit was titrated. 220,000 tested, 0.95% active;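 active = confirmed in a dose series; inconclusive = inhibition above 80% but not taken into the dose series; inactive = below 80% or under 30% at every dose of the series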;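 also: bacteria incubated seven days before Alamar blue readout; 0% = bacteria only wells and 100% = bacteria with antibiotic wells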
RecA splice inh: Mtb RecA intein splicing inhibition | cell-free RecA intein splicing, fluorescence | P9WHJ3 | inhibition, %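 (about 9 µM by stock and volumes)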 | 290,000 tested, 0.75% active; in the data active = inhibition above about 30%; inconclusive = no clear call, values can overlap the other calls;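 also: 0% = vehicle wells and 100% = reference inhibitor control wells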
Target sequence (P9WHJ3 whole entry, looked up, canonical isoform): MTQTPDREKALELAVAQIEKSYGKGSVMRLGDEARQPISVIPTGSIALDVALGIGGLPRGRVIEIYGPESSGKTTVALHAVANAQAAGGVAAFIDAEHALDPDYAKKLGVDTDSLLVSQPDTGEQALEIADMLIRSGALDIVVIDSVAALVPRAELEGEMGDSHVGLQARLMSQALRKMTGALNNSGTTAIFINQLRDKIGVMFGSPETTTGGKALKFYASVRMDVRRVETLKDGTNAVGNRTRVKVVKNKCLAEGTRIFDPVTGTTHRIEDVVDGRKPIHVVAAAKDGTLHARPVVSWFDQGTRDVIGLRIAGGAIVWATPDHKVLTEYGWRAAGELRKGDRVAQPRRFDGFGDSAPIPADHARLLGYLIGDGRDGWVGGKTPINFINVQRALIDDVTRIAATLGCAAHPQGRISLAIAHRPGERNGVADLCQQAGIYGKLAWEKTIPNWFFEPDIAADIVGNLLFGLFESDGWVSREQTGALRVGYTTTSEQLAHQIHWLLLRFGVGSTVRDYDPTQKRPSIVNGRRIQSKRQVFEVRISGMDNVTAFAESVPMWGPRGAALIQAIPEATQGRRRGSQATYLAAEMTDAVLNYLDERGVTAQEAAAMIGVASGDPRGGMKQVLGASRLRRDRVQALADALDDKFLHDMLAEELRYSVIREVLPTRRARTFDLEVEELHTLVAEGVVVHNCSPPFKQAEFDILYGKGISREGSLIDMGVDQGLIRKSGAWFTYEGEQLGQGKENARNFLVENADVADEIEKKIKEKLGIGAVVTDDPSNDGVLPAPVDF
YopH PTP inh: blocks Yersinia enterocolitica YopH tyrosine phosphatase; fluorescence Ex485/Em525; inhibition, %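 (about 10 µM by stock and volumes)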; 140,000 tested, 0.16% active; AID 898;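 active = inhibition of 50% or more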;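 also: controls were vehicle for no effect and minimum signal wells for full effect; inactives centre near -20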
Mtb betalactam: beta-lactam sensitization of Mtb H37Rv; inhibition, % at 25 µM; M. tuberculosis H37Rv growth with meropenem, percent inhibition; hits of this screen are not shown here; AID 434955; 330,000 tested, 0.27% active;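 active = about 74% or more and at least 40 points above the plate without the antibiotic, then above 30% in a dose series; inconclusive = first-round hits that could not be retested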;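 also: growth measured after seven days incubation then overnight dye step; 0% = bacteria only wells and 100% = bacteria with antibiotic; twin plates without the antibiotic show which effects depend on it; some results filed as inactive read as strong as hits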
Arbovirus inh repeat: also measured in Arbovirus inh; calls as there; inhibition, %; measured here: 10K subset replicate screen; many hits read low in the repeat;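 first of two repeat runs on a subset; 0% = infected and 100% = uninfected wells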
An asterisk follows results filed as active; ? = inconclusive; · = not tested or not shown.

SMILES	Arbovirus inh	Mtb H37Rv	RecA splice inh	YopH PTP inh	Mtb betalactam	others
Cc1cc(C(C)(C)C)cc(C)c1Cn1c2[n+](c3ccc(C(F)(F)F)cc31)CCCCC2	-11	?	7.0	·	99
N#Cc1cnc2sc3ccccc3n2c1=N	5	-2%	-17	-39	4	Arbovirus inh repeat=6
COc1ccc(-n2c(=O)[nH]c3cc(C(=O)NCCc4ccc(OC)c(OC)c4)ccc3c2=O)c(OC)c1	·	·	-3.8	·	4
Cc1cc(C)cc(NC(=O)CSc2nnc(CNC(=O)c3ccco3)o2)c1	·	·	-2.1	·	-2
Cc1cccc(CS(=O)(=O)Cc2ccc(C(=O)NCC3CCCO3)o2)c1 (stereo not drawn)	9	·	-3.5	-26	5
CSc1nnc2n(-c3ccccc3)c(=O)c3c4c(sc3n12)CCC4	-2	2%	·	-42	-2
COCCSc1nnc(NC(=O)C2CCCCC2)s1	32*	-21%	-0.6	-4	4
CC(C)CNC(=O)c1cccc(NC(=O)Cc2ccc(Cl)cc2)c1	6	7%	-2.1	-21	1
O=C1NC[C@@H](Cc2cccc3ccccc23)N(CCC23CC4CC(CC(C4)C2)C3)C1=O	·	·	1.1	·	-7
Cc1c(S(=O)(=O)Nc2cccc(Cl)c2)c(=O)n(C)c(=O)n1C	6	-1%	-0.5	0	-2
COc1ccccc1N=c1c2c([N+](=O)[O-])cc([N+](=O)[O-])cc2n(O)n1-c1ccccc1OC	-6	·	·	·	15
CCCCC(=O)Nc1ccccc1N1CCOCC1	9	13%	-0.3	·	-4
Cn1nnnc1SCC(=O)Nc1ccccc1N1CCCCC1	-3	-6%	-1.5	26	52
CS(=O)(=O)N(CC(=O)NCCSCc1cccc(Cl)c1)c1ccccc1F	·	·	-1.3	·	-1
Cc1cc(Nc2ccccc2)n(-c2cccc(Cl)c2)n1	-14	-3%	7.3	-9	20
CC(=O)Nc1ccc(NC(=O)c2cccc3ccccc23)cc1	·	·	-0.6	·	9
COCCOc1ccc(C(F)(F)F)cc1NC(=O)Cc1ccc(S(=O)(=O)N2CCOCC2)s1	·	·	-3.8	·	-12
O=C(NCC(=O)N(c1ccccc1F)C(C(=O)NC1CCCC1)c1ccco1)c1ccco1 (stereo not drawn)	7	-4%	0.5	·	-3
CCSc1ncc(CO)c(N)n1	·	-15%	-11	·	-2
Cc1ccc(OCC2Cn3c(nc4c3c(=O)[nH]c(=O)n4C)O2)cc1C (stereo not drawn)	·	·	0.5	·	0
O=C(OCC(=O)N1CCCc2ccccc21)c1ccccc1[N+](=O)[O-]	·	·	-5.1	·	-5
c1ccc(Oc2cccc(OCCCCN3CCCC3)c2)cc1	-13	8%	1.9	6	-1
COc1cc(/C=C2\SC(=S)N(CC(=O)Nc3ccc(O)cc3)C2=O)cc(OC)c1OC	7	-7%	-0.1	·	·
O=C(C[n+]1ccc(/C=N/O)cc1)N1CCCCC1	·	-10%	-1.8	·	1
CCN(CC)c1ccc(C(=O)NC(=S)Nc2cc(S(=O)(=O)N3CCOCC3)ccc2-n2cncn2)cc1	-10	7%	2.4	-18	-7
CCOc1ccc(C(CC(=O)O)NC(=O)CCCOc2ccc(Cl)cc2C)cc1 (stereo not drawn)	3	-3%	0.4	·	-3
CCCCCn1c(=O)c(C(=O)Nc2cccc(C)c2)c(O)c2ccccc21	·	·	0.4	·	74
Cc1cccc(N2C(=O)/C(=C\c3ccc(OC(F)F)cc3)c3ccccc3C2=O)c1	-5	-7%	-396	-13	0
CCN(CC)CCOc1ccccc1C(C)=O	15	-1%	-0.2	·	-7
O=C1NC(=O)C(CCc2ccncc2)(Cc2cccc(Cl)c2Cl)C(=O)N1c1ccc(Br)cc1 (stereo not drawn)	8	27%	1.1	-24	57

Five entries picked at random from the list so far, as already listed:
SMILES	Arbovirus inh	Mtb H37Rv	RecA splice inh	YopH PTP inh	Mtb betalactam	others
c1ccc(Oc2cccc(OCCCCN3CCCC3)c2)cc1	-13	8%	1.9	6	-1
CCCCCn1c(=O)c(C(=O)Nc2cccc(C)c2)c(O)c2ccccc21	·	·	0.4	·	74
CCOc1ccc(C(CC(=O)O)NC(=O)CCCOc2ccc(Cl)cc2C)cc1 (stereo not drawn)	3	-3%	0.4	·	-3
CCN(CC)c1ccc(C(=O)NC(=S)Nc2cc(S(=O)(=O)N3CCOCC3)ccc2-n2cncn2)cc1	-10	7%	2.4	-18	-7
O=C1NC(=O)C(CCc2ccncc2)(Cc2cccc(Cl)c2Cl)C(=O)N1c1ccc(Br)cc1 (stereo not drawn)	8	27%	1.1	-24	57

Remaining list, next part:
SMILES	Arbovirus inh	Mtb H37Rv	RecA splice inh	YopH PTP inh	Mtb betalactam	others
O=S(=O)(c1ccc(-c2nnc(SCc3nnc(-c4ccccc4)o3)o2)cc1)N1CCCC1	-7	-5%	-3.2	7	11
COc1ccc(NC(=O)c2cc(S(=O)(=O)NCC3COc4ccccc4O3)ccc2F)cc1 (stereo not drawn)	-3	2%	4.0	-18	1
Nc1ccc(Cc2ccc(N)c(C(=O)O)c2)cc1C(=O)O	3	-6%	-2.5	-25	-5
O=C(CSc1nnc(-c2ccccc2)n1-c1ccc(Cl)cc1)NNC(=S)Nc1ccccc1	-10	7%	9.6	-6	1
CCCCC(CC)C(=O)Nc1cc(C(=O)NCc2ccc(C)cc2)ccc1N1CCC2(CC1)CC(c1ccccc1)=NO2 (stereo not drawn)	·	·	0.0	·	-8
O=C(NCCCn1ccnc1)Nc1ccc(Cl)cc1Cl	-1	0%	-0.3	-7	-3
CN(Cc1cccs1)c1ncnc2sccc12	13	-1%	3.2	-17	11
COc1ccc(NC(=O)N2CCN(S(C)(=O)=O)CC2)cc1OC	9	-1%	2.6	-11	-27
COc1ccc(CCC(=O)NNC(=O)Nc2ccc(OC)c(OC)c2)cc1	·	·	-0.5	·	-4
Cn1nc(-c2ccc(OCC(=O)NCC3CCCO3)cc2)c2ccccc2c1=O (stereo not drawn)	7	-2%	1.5	-32	·

In the list so far, these contain a furan ring, fused or not:
SMILES	Arbovirus inh	Mtb H37Rv	RecA splice inh	YopH PTP inh	Mtb betalactam	others
Cc1cc(C)cc(NC(=O)CSc2nnc(CNC(=O)c3ccco3)o2)c1	·	·	-2.1	·	-2
Cc1cccc(CS(=O)(=O)Cc2ccc(C(=O)NCC3CCCO3)o2)c1 (stereo not drawn)	9	·	-3.5	-26	5
O=C(NCC(=O)N(c1ccccc1F)C(C(=O)NC1CCCC1)c1ccco1)c1ccco1 (stereo not drawn)	7	-4%	0.5	·	-3

Following part:
SMILES	Arbovirus inh	Mtb H37Rv	RecA splice inh	YopH PTP inh	Mtb betalactam	others
COc1ccc(NC(=O)C2CCCN(C(=O)Nc3ccc(OC)cc3)C2)cc1 (stereo not drawn)	·	·	-8.7	·	1
COc1ccc(C(=O)Nn2c(SCC(=O)NCC3CCCO3)nc3ccccc3c2=O)cc1 (stereo not drawn)	6	-7%	-1.2	-65	2
Brc1ccc(C2C3=C(Nc4ncnn42)c2ccccc2OC3c2ccncc2)cc1 (stereo not drawn)	-16	3%	6.5	3	84
COCCNC(=O)c1cc(C(=O)CC(C)C)c[nH]1	-4	-2%	-0.8	·	-1
CCOc1ccc2nc(NC(=O)Nc3cccs3)sc2c1	36*	4%	6.3	-31	1	Arbovirus inh repeat=31*
COc1ccc(CCNC(=O)CSc2ccsc2[N+](=O)[O-])cc1OC	4	-6%	2.0	·	65
CCOc1cc(S(=O)(=O)Nc2ccc(CC)cc2)ccc1Cl	-36	8%	·	-16	-6
O=C(Oc1nsnc1N1CCOCC1)N1CCCC1	·	-3%	-1.8	-38	-3
CC(C)(C)S(=O)(=O)/C(C#N)=N/Nc1ccc(C#N)cc1	4	-2%	5.7	·	2
COc1ccc(OC)c(NC(=O)C2CCC(CNc3c(N4CCOCC4)c(=O)c3=O)CC2)c1 (stereo not drawn)	·	-16%	1.4	·	0

3 entries from above, ordered by number of heavy atoms, lowest first.
SMILES	Arbovirus inh	Mtb H37Rv	RecA splice inh	YopH PTP inh	Mtb betalactam	others
COCCNC(=O)c1cc(C(=O)CC(C)C)c[nH]1	-4	-2%	-0.8	·	-1
O=C(Oc1nsnc1N1CCOCC1)N1CCCC1	·	-3%	-1.8	-38	-3
Brc1ccc(C2C3=C(Nc4ncnn42)c2ccccc2OC3c2ccncc2)cc1 (stereo not drawn)	-16	3%	6.5	3	84

(more compounds)
SMILES	Arbovirus inh	Mtb H37Rv	RecA splice inh	YopH PTP inh	Mtb betalactam	others
O=C(NCc1ccco1)c1cnn2c1NC(c1ccccc1)CC2C(F)(F)F (stereo not drawn)	-5	3%	9.9	-32	-4
CCC1COCCS(=O)(=O)N1Cc1ccccc1C (stereo not drawn)	·	·	-0.8	·	-2
CC(=O)Nc1ccc(C(=S)NCC2(N(C)C)CCCCC2)cc1	4	6%	-1.5	·	3
O=C(CSc1nnc(-c2cccs2)n1CC1CCCO1)c1cc2ccccc2o1 (stereo not drawn)	-1	·	2.5	-43	-13
COc1ccc(CC2(CO)CCN(Cc3c(C)nn(C(C)C)c3C)CC2)cc1	-7	-8%	-1.2	·	1
CCOCC(=O)Nc1ccc2c(c1)N(S(=O)(=O)c1cccs1)CCC2	·	·	2.1	·	-3
Cc1ccc2oc(=O)c3cc(C(=O)NCc4ccco4)sc3c2c1	4	4%	0.1	·	6	Arbovirus inh repeat=0
CC(O)CN(CCC(N)=O)CCC(N)=O (stereo not drawn)	-1	-5%	-0.1	-7	-2
CCCNC(=O)Cn1nc(C(F)(F)F)c2c1CCC2	-2	-6%	0.7	·	1
CC(C)NC(=O)CSc1nc(-c2ccccc2)cs1	-8	11%	-2.1	·	·

Overlap with the part before: 2 compounds, then new ones.
SMILES	Arbovirus inh	Mtb H37Rv	RecA splice inh	YopH PTP inh	Mtb betalactam	others
CCCNC(=O)Cn1nc(C(F)(F)F)c2c1CCC2	-2	-6%	0.7	·	1
CC(C)NC(=O)CSc1nc(-c2ccccc2)cs1	-8	11%	-2.1	·	·
CC(Sc1nnc(COc2ccccc2)n1-c1ccccc1)C(=O)O (stereo not drawn)	·	·	-1.5	·	4
O=C(Nc1cccc(Cl)c1N1CCCC1)c1ccc(Br)o1	-31	4%	9.9	-8	16
CN(C)S(=O)(=O)N1CCN(c2ccnc3cc(Cl)ccc23)CC1	·	·	0.0	·	-10
OCCCn1c(CCNc2nc(-c3ccc(Cl)cc3)cs2)nc2cc(C(F)(F)F)ccc21	·	0%	0.4	·	-5
CCN1C(=O)CC(N2CCOCC2)C1=O (stereo not drawn)	2	-1%	0.2	-20	-1
Cc1cccc[n+]1CC(=O)c1ccc(Cl)cc1	·	·	-0.1	·	-6
COc1ccc(CNC(=O)c2ccc(Br)s2)cc1OC	·	·	3.0	·	1
C/C(N)=C(/C#N)C(=O)CSc1nc2ccccc2n1CC(C)C	-4	-2%	0.4	·	-3
O=C(NCc1ccco1)c1cccc(N2CCCC2=O)c1	0	-8%	-4.8	5	-1
CCOC(=O)N1CCC(NC(=O)CCc2ccccc2)CC1	·	·	-0.8	·	-3

Not all compounds are listed. The share of hits here may be higher or lower than overall.
